High-throughput results (PubChem)
VDR inh = blocks the human vitamin D receptor; P11473; VDR-SRC2-3 peptide fluorescence polarization, 2 h; Potency, µM, without a hit: max response, negative = inhibition, most hits filed as inhibitors; 400,000 compounds, 0.93% hits; AID 504847; active means well fitted inhibition curve with a large enough effect; inconclusive means small, poorly fitted or top-dose-only effect, or another doubt; inactive means no such curve, though single readings can be large or run the other way; further: series mostly up to about 120 µM
Target sequence (P11473 whole entry, looked up): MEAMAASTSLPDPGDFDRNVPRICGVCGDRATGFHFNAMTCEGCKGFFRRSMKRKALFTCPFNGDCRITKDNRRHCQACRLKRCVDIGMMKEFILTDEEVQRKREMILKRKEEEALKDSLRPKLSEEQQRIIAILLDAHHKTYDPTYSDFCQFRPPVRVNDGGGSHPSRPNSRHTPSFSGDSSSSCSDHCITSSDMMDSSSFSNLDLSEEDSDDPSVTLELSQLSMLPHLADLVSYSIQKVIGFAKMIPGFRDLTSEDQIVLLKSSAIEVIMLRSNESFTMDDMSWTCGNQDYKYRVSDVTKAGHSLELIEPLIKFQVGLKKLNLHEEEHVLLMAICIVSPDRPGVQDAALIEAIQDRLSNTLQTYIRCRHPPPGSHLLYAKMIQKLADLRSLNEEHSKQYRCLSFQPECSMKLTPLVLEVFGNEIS
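Compounds are added to VDR with labelled SRC2-3 coactivator peptide and held 2 h at room temperature. Inhibition of the VDR–peptide interaction is then read as a change in fluorescence polarization.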
Numbers without * were called inactive; ? = inconclusive; & = joins results of further samples; [ ] = another dose, or the depositor's remark. On the % scale 0 is the no-effect control and ±100 the full control effect; potency means the concentration at half of the fitted maximal effect.

VDR inh | structure
-1% | O=C(C(NS(=O)(=O)c1cccc2nsnc12)c1ccccc1)N1CCN(c2ccccn2)CC1 (configuration not stated)
45µM* | O=C(O)CN1C(=O)/C(=C\c2cccc(OCc3ccc(F)cc3)c2)SC1=S
-7% | CCn1c(C)cc(/C=C2\NC(=O)N(Cc3ccccc3)C2=O)c1C
-11% | COC(=O)c1ccc(N=NN2CCCCC2)cc1
11% | COC(=O)c1ccc(OCC(=O)c2ccccc2OC)cc1
0% | CCCSCCCNC(=O)C1CCN(c2nc3ccccc3nc2C(F)(F)F)CC1
6% | COc1ccc(CCNC(=O)Oc2ccccc2)cc1OC
1% | O=C(/C=C/c1cccs1)N1CCN(c2ccccc2)CC1
7% | COc1cc(NC(=O)C2CCCN(S(=O)(=O)c3ccc4c(c3)oc(=O)n4C)C2)cc(OC)c1 (configuration not stated)
4% | CCOc1cccc(-n2nnnc2-c2ccc(OC)cc2)c1
-9% | CC1=C(C(=O)OC(C)C)C(c2ccsc2)NC(=O)N1C (configuration not stated)
-3% | CCOc1ccccc1NS(=O)(=O)c1ccc(-n2cccn2)cc1
1%&13% | CCCc1nc2nc(C)c(NS(=O)(=O)c3ccc(CC(C)C)cc3)c(=O)n2[nH]1
-10% | [N-]=[N+]=CC(=O)C(Cc1ccccc1)N1C(=O)c2ccccc2C1=O (configuration not stated)
16% | CCOc1cc(C(=O)Nc2nnc(S(=O)(=O)N3CCOCC3)s2)cc(OCC)c1OCC
-6% | COc1ccc(Br)c2c1-c1nc(NC(=O)c3ccc(F)cc3)sc1C2
-12% | Cc1cccc(OCC(=O)N2CCN(C(=O)COc3ccc(Cl)cc3)CC2)c1
-12% | O=C(NCC1CCCN1S(=O)(=O)c1ccccc1)c1cccc(Cl)c1 (configuration not stated)
1% | C/C(=N\OCC(=O)Nc1ccc(OC(F)(F)F)cc1)c1ccc2c(c1)OCCO2
12% | Nc1nc(CN2CCN(c3ccccc3F)CC2)nc(Nc2ccccc2)n1
-6% | CN(Cc1nccn1C)C(=O)CC1C(=O)NCCN1Cc1ccc(F)cc1Cl (configuration not stated)
-3% | COc1ccc(NC(=O)Nc2c(C)n(C)n(-c3ccccc3)c2=O)cc1OC
19% | O=C(Nc1ccc(Cl)cc1)OCCn1nnnc1C(c1ccccc1)N1CCOCC1 (configuration not stated)
5% | O=C(Cc1ccc(Cl)c(Cl)c1)NC1CCCCCC1
-7% | COC(=O)C(=C/C=C/c1ccco1)C(=O)OC
-16% | COc1ccc(CCNS(=O)(=O)c2ccc(OC)c(OC)c2)cc1OC
14% | CC(Sc1nc2scc(-c3ccccc3)c2c(=O)[nH]1)C(=O)NC(N)=O (configuration not stated)
? | Cc1ccc(NC(=O)COc2ccc(-c3nnco3)cc2)cc1S(=O)(=O)N1CCOCC1
-24% | CC/C(O)=C1\C(=O)CC(C)(C)CC1=Nc1ccccc1C
9% | CC(C)CC(NC(=O)c1ccc(Cl)cc1)C(=O)OCC(=O)c1ccc2c(c1)NC(=O)CO2 (configuration not stated)
-12% | COc1ccc(F)cc1C1=CC(=O)C[C@H](c2ccc3c(c2)OCO3)C1
4% | CCNC(=O)C1CCCN(c2nn3cc(-c4ccc(C)cc4)nc3s2)C1 (configuration not stated)
2% | Cc1ccc(-n2ncc(C(=O)NCCN3CCCC3)c2C2CCN(C(=O)OC(C)(C)C)CC2)cc1C
-17% | CC1(C)Cc2cccc(Oc3cc(NN4CCCCC4)c([N+](=O)[O-])cc3[N+](=O)[O-])c2O1
10% | CNC(=O)c1cc2n(n1)CCCN(Cc1ccc(F)cc1)C2=O
1% | CCCCCCNC(=O)c1ncn[nH]1
6% | Cc1nc(Oc2ccccc2)c2ccsc2n1
? | COC1CC2CCC(C)[C@](O)(O2)C(=O)C(=O)N2CCCCC2C(=O)OC(C(C)CC2CCC(O)C(OC)C2)CC(=O)C(C)/C=C(/C)C(O)C(OC)C(=O)C(C)CC(C)C=CC=C/C=C\1C (some centres not stated)
-7% | Cc1cc(C)c(NC(=O)CCn2c(=O)c3cccn3c3ccccc32)c(C)c1
-21% | CCOC(=O)C(C)Sc1ncnc2nc[nH]c12 (configuration not stated)

Gathered by group, the compounds so far with a thiophene ring, fused or not.
VDR inh | structure
1% | O=C(/C=C/c1cccs1)N1CCN(c2ccccc2)CC1
-9% | CC1=C(C(=O)OC(C)C)C(c2ccsc2)NC(=O)N1C (configuration not stated)
14% | CC(Sc1nc2scc(-c3ccccc3)c2c(=O)[nH]1)C(=O)NC(N)=O (configuration not stated)
6% | Cc1nc(Oc2ccccc2)c2ccsc2n1

Carrying on:
VDR inh | structure
? | O=C(C[C@H]1C[C@H](C(=O)N2CCOCC2)[C@@]2(CCC3CCCC3)c3[nH]c4cc(-c5ccco5)ccc4c3CCN2C1=O)NCc1cccc(C(F)(F)F)c1
-13% | O=C(C[C@H]1C/C=C\C[C@H](Cc2ccc(F)cc2)C(=O)O[C@@H](c2ccccc2)CNC1=O)N[C@H](CO)Cc1ccccc1
-15% | Cc1cc(C)nc(NC(=O)Cc2ccc([N+](=O)[O-])cc2)c1
-6% | CCCN1CNc2c(c(=O)[nH]c(=S)n2CCC)C1
-4% | CCOC(=O)/C=C1\CN(Cc2ccc(OC)cc2)S(=O)(=O)c2ccccc21
-5% | CNC(=O)COc1coc(CN2CCN(c3cccc(Cl)c3)CC2)cc1=O
? | CCOc1ccc(N2CC(C(=O)OCC(=O)c3ccc(OC)cc3)CC2=O)cc1 (configuration not stated)
6% | O=C(CSc1nnc(CNc2ccccc2)o1)N1CCc2ccccc21
-4% | COc1ccc(C)cc1NC(=O)c1cc(S(=O)(=O)NC2CCCCCC2)ccc1F
1% | COc1ccccc1C(=O)Nc1ccnn1C1CCN(C(=O)C(C)(C)C)CC1
-5% | Cn1c(SC/C=C/c2ccccc2)nnc1-c1cccs1
-18% | CC(C)Nc1nc(NC(C)C)nc(OCCOC(=O)c2ccccc2)n1
18% | CCCn1c(N)c(C(=O)CSc2nc3ncc(Cl)cc3[nH]2)c(=O)[nH]c1=O
1% | Cc1ccccc1S(=O)(=O)Nc1ncc(C(F)(F)F)cc1Cl
-13% | N#CCCN(C(=O)CSc1n[nH]c(=O)[nH]c1=O)c1ccccc1
61%[activator] | O=C(Nc1ccccc1)c1ccc(-n2nncc2-c2ccccc2)cc1
-10%&3% | COc1ccc(CNC(=O)Cn2nc(C)n3cccc3c2=O)cc1
12% | CC1=C(C(N)=O)C(c2cccs2)n2nc(-c3cccc(C)c3)nc2N1 (configuration not stated)
-8% | COC(=O)c1ccc(NC(=S)NCc2ccco2)cc1
-4% | Nc1ncc(Br)cc1N=Cc1ccccc1
5% | CCC1CCC(C(=O)NC(C(=O)NCCN2CCOCC2)C(C)C)CC1 (configuration not stated)
-16% | COc1ccc(/C=C/C(=O)NC(=S)NNC(=O)c2c(-c3ccccc3)noc2C)cc1
5% | C=CCn1c(SCC(=O)NCc2ccc3c(c2)OCO3)nnc1-c1cccnc1
-3% | CC1(C)CC(=O)c2cnc3nc4ccccc4n3c2C1
32µM* | CN1CCc2c(sc(/N=C/c3cccs3)c2C(N)=O)C1
-8% | O=C(COC(=O)/C=C/c1cn(-c2ccccc2)nc1-c1cccnc1)Nc1ccc(Cl)cc1Cl
25µM* | [O-]/[N+](=C\c1ccccc1)c1ccc(Br)cc1
-7% | COC(=O)C(Cc1ccccc1)NC(=O)CSc1nc(C)cc(=O)[nH]1 (configuration not stated)
-12% | COc1ccccc1CNC(=O)CCSCc1cccc(Cl)c1
2% | Cc1ccc(NC(=O)c2cccc(S(C)(=O)=O)c2)cc1
-11% | CCOC(=O)N1CCN(Cc2nc(N)nc(Nc3ccccc3C)n2)CC1
-3% | CC(=O)c1ccc(Nc2nc3ccc(C)cc3n3cnnc23)cc1
89µM* | C/C=C\C=C\C(=O)N1CC2(CC(c3cccc(NC(=O)COc4ccc(Cl)cc4)c3)=NO2)C[C@H]1C(N)=O (some centres not stated)
5% | COc1cc(OC)c(NC(=O)N2CCC(CN3CCCC3)CC2)cc1Cl
14% | Cn1nnnc1SCCNCc1ccccc1OCc1ccccc1Cl
-10% | COc1ccc(C(CNC(=O)c2ccc(S(=O)(=O)N3CCOCC3)cc2)N2CCCCC2)cc1 (configuration not stated)
16% | Cc1ccc(S(=O)(=O)N2CCCC2)cc1C(=O)N1CCC(C)CC1
8% | COc1ccc(N2CCN(C(=O)CCc3ccc(S(=O)(=O)NC(C)C)cc3)CC2)cc1
-1% | O=C(C1CCC(Cn2c(=O)c3sccc3n(Cc3ccc(F)cc3)c2=O)CC1)N1CCOCC1 (configuration not stated)
-7% | O=C(CC12CC3CC(CC(Br)(C3)C1)C2)OCCN1CCCCC1

Laid out differently: entries from further up
SMILES,VDR inh
CCOC(=O)N1CCN(Cc2nc(N)nc(Nc3ccccc3C)n2)CC1,-11%
CC(=O)c1ccc(Nc2nc3ccc(C)cc3n3cnnc23)cc1,-3%

The listing continues:
VDR inh | structure
10% | Cc1cc(C)nc(NN2C(=O)/C(=C/c3ccc(O)cc3)SC2=S)n1
8% | CC1CCN(C(=O)CN2C(=O)C(C)(C)Oc3ccc(C(=O)NC(C)C)cc32)CC1
5% | COc1ccc(C(=O)NNC(=S)NC(=O)c2cccs2)cc1
-2% | CSCCC(NC(=O)COc1ccccc1)C(=O)N(C)CC(=O)Nc1c(C)cccc1C (configuration not stated)
-3% | O=C(CSc1nccc2ccccc12)N1CCN(Cc2ccc3c(c2)OCO3)CC1
11% | COCCCNS(=O)(=O)c1ccc2[nH]c(=O)[nH]c2c1
-16%&-4% | O=C1CC(c2ccco2)CC2=C1C(c1ccccc1)n1nc(C(F)(F)F)nc1N2 (configuration not stated)
19% | C=C1C(C(=O)Nc2ccc(F)cc2)C1C(=O)Nc1ccc(F)cc1 (configuration not stated)
10% | CCOc1cc(/C=C(\C#N)C(=O)Nc2ccc(S(N)(=O)=O)cc2)ccc1OCCN1CCOCC1
13% | CCOC(=O)Cc1csc(N)n1
-25% | COc1cccc(NS(=O)(=O)c2ccc3[nH]cc(C(=O)NC4CC4)c(=O)c3c2)c1
6% | Cc1cc(NC(=O)C(=O)c2c(C)[nH]c3ccccc23)no1
9% | CCOn1c(-n2nc(C)cc2C)nc2ccccc2c1=O
-14% | O=C(CSc1n[nH]c(-c2ccc(Br)cc2)n1)NC1CCCC1
-27% | Cc1cccc(CSCCNC(=O)CN(c2cc(C)cc(C)c2)S(C)(=O)=O)c1
-2% | O=C(O)C1CCCN1S(=O)(=O)c1ccc(F)cc1 (configuration not stated)
15% | Cc1onc(-c2c(F)cccc2Cl)c1C(=O)N1CCN(S(C)(=O)=O)CC1
-28% | COc1cc(C(C)=O)ccc1OCC(=O)OCCCOC(=O)COc1ccc(C(C)=O)cc1OC
-1% | CC(C)CN1CCC(C(=O)N2CCN(c3ccccc3F)CC2)CC1
? | N=C1/C(=C\c2ccc(-c3cccc(Cl)c3)o2)C(=O)N=C2SC=C(c3ccccc3)N12

Reprinted from the part before: 6 compounds, then new ones.
VDR inh | structure
-27% | Cc1cccc(CSCCNC(=O)CN(c2cc(C)cc(C)c2)S(C)(=O)=O)c1
-2% | O=C(O)C1CCCN1S(=O)(=O)c1ccc(F)cc1 (configuration not stated)
15% | Cc1onc(-c2c(F)cccc2Cl)c1C(=O)N1CCN(S(C)(=O)=O)CC1
-28% | COc1cc(C(C)=O)ccc1OCC(=O)OCCCOC(=O)COc1ccc(C(C)=O)cc1OC
-1% | CC(C)CN1CCC(C(=O)N2CCN(c3ccccc3F)CC2)CC1
? | N=C1/C(=C\c2ccc(-c3cccc(Cl)c3)o2)C(=O)N=C2SC=C(c3ccccc3)N12
5% | Cc1ccc(-c2c(C#N)c(N)n(-c3ccc(C)cc3)c(=O)c2C#N)cc1
-3% | Cc1ccc(-c2cc(C(=O)NCc3ccco3)c3ccccc3n2)o1
-11% | CN(CC(=O)Nc1cccc(F)c1)C(=O)c1ccc(C2SCCS2)cc1
-26% | O=c1[nH]c2c(s1)C(c1ccc(O)cc1)C1C3CCC(C3)C1S2 (configuration not stated)
-17%&3%&5%&-10% | Nc1ccc(N=Nc2ccccc2)c(N)n1
17% | Cc1ccccc1NC(=O)Nc1ccc2c(c1)CCC2
-3% | COc1cc2c(cc1OC)CN(C1CCC(C(C)(C)C)CC1)CC2 (configuration not stated)
1% | CN(CC(=O)Nc1cccc(C(F)(F)F)c1)S(=O)(=O)c1cccs1
2% | COc1ccc(-c2noc(C3CCCN(C(=O)Nc4ccccc4)C3)n2)cc1 (configuration not stated)
-26% | O=C(CSc1ccc(-c2cccc([N+](=O)[O-])c2)nn1)NCc1ccccc1
5% | CCOC(=O)Cn1c(=O)n(C2CCCCC2)c2nc(-c3ccc(OCC)cc3)nc(C(N)=O)c21
-5% | Cc1cc(C(=O)N2CCN(c3ncccn3)CC2)sc1-c1ccccc1
3% | Cn1c(=O)c2[nH]c(N3CCN(c4cccc(O)c4)CC3)nc2n(C)c1=O
-12% | CCS(=O)(=O)c1nc(S(=O)(=O)c2ccc(Cl)cc2)c(N2CCN(CCO)CC2)s1
-16% | CCOC(=O)c1ccc(Oc2cn[nH]c2-c2ccc(OCC(=O)NN)cc2O)cc1
14% | C[C@@H]1CN(C(=O)c2cc(COc3cccc(C(F)(F)F)c3)on2)C[C@H](C)O1
3% | C/C1=C\[C@@H](O)C(C(C)C)C(OC(=O)c2ccc(O)cc2)C/C(C)=C/CC1 (some centres not stated)
18% | CCOC(=O)c1ccc(NC(=O)Cn2nnc(-c3ccccc3F)n2)cc1
-8% | CN(Cc1ccco1)C(=O)Cn1c(=O)oc2cc(S(=O)(=O)NCc3ccccc3)ccc21
-5% | CC(=O)Nc1ccc(NC(=O)Cc2sc(C)nc2-c2ccc(C)cc2)cc1
2% | CCCCc1nnc(NC(=O)CCc2ccccc2)s1
11% | O=C(CC1N=C2c3ccccc3N=C(SCc3cccc(Cl)c3)N2C1=O)NCCc1ccccc1 (configuration not stated)

A portion of the library; the hit share may differ from the screen's.
